# KCNQ2 inh: KCNQ2 channel blockers in CHO-K1 cells – cell-based, FluxOR thallium flux, B-score, primary screen (AID 2156). 310,000 tested, 1.1% active. O88943. B-score at 10 µM. 20 min; active compounds read low; only compounds with negative scores are shown here; some inactives read as strong as hits;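 active = fluorescence ratio B-score at most minus 3 library SDs, with starting brightness B-score within 2 library SDs, cut at about -5.5 in these data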
# Target sequence (O88943 whole entry, looked up): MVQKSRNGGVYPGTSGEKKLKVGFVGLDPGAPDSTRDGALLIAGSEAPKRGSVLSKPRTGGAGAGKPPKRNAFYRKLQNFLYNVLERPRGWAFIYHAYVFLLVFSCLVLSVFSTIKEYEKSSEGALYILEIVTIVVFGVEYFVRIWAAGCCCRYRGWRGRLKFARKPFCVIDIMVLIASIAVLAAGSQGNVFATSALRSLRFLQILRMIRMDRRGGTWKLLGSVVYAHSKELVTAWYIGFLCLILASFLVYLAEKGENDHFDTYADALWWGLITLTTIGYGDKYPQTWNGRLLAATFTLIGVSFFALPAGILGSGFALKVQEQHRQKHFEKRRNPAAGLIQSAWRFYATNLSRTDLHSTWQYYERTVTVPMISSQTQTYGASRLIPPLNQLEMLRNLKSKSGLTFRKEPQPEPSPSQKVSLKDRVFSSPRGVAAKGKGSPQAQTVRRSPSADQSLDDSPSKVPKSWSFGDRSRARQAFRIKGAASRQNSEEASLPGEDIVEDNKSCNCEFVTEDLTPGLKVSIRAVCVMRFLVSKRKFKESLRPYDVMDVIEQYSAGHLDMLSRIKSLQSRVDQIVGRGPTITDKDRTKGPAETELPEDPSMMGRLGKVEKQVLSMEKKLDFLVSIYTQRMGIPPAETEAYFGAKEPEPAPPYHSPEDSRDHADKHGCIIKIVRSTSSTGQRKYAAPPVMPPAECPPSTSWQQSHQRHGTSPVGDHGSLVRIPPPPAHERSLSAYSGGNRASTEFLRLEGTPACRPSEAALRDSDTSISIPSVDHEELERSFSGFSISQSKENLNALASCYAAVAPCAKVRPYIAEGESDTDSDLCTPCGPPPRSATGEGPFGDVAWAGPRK
# KCNQ2 inh baseline: also measured in KCNQ2 inh; calls as there; B-score; measured here: initial fluorescence intensity artifact check;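 brightness before thallium and not channel activity; 0 = typical well and far values either way flag optical interference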
# Starred values were filed as active, the others as inactive; i = inactive.
KCNQ2 inh	KCNQ2 inh baseline	canonical_smiles
i	1	Cn1c(=O)c2c(nc(OCC3COC(C)(C)O3)n2Cc2ccccc2F)n(C)c1=O (stereo unspecified)
i	0.06	O=S(=O)(c1ccccc1Oc1ccc(Cl)cc1Cl)N1CCCCC1
i	-0.83	N/C(Cc1cccs1)=N\OC(=O)COc1ccccc1Cl
i	-0.12	Cc1cc(C)n(-c2nc(N(c3ccccc3)c3ccccc3)nc(-n3nc(C)cc3C)n2)n1
i	0.33	Cc1ccc(-c2nc(CS(=O)CC(=O)NCCN(CC(C)C)CC(C)C)c(C)o2)cc1 (stereo unspecified)
i	-0.88	CC(OCC(O)CN1CCCCC1CCO)c1ccc(Cl)cc1 (stereo unspecified)
i	0.2	Cn1c(Cn2c(=O)sc3ccccc32)nnc1SCc1ccc(F)cc1
i	-0.56	CC1=CC2=NC(=O)/C(=C\c3cccn3CCOc3cc(C)cc(C)c3)C(=N)N2O1
i	-0.04	COc1ccc(CN(C)c2ncnc3sccc23)c(OC)c1OC
i	-0.03	Cc1cccc(CC(=O)NCCN2CCOCC2)c1
i	-0.59	CC(C)(O)P(C)(=O)c1ccccc1 (stereo unspecified)
i	-1.51	CC1(C(=O)N2CCN(Cc3ccccc3Cl)CC2)CC1(Cl)Cl (stereo unspecified)

# (listing goes on)
KCNQ2 inh	KCNQ2 inh baseline	canonical_smiles
i	0.92	CC1=CC(C)(C)N=C(NC#N)N1
i	0.47	O=C(Cc1ccccc1Cl)Nc1nc2ccccc2[nH]1
i	0.07	COc1ccc(CC(=O)OCc2cc3ccccc3[nH]c2=O)cc1
i	-1.94	CN(C)CCCNC(=O)c1cc(C(=O)c2cccc(Cl)c2Cl)c[nH]1
i	-0.03	O=C(N/N=C/c1ccc[nH]1)c1ccccc1OCc1ccc(F)cc1
i	-0.82	c1ccc(-c2noc(COc3ccc4c(c3)OCO4)n2)cc1
i	-0.2	CCCN1C2=C(C(=O)CCC2)C(c2ccc(O)c(Br)c2)C2=C1CCCC2=O
i	1.12	CC(=O)c1ccc(N/N=C2/CCCNC2=O)cc1
i	0.14	N#Cc1cccc(NC(=O)c2cncn2-c2ccccc2)c1
i	0.2	CC(C)c1ccc(NC(=O)Cn2ncn3c(cc4ccccc43)c2=O)cc1
i	-1.01	O=C1C2C3C=CC(C3)C2C(=O)N1CCN1CCN(Cc2ccc([N+](=O)[O-])cc2)CC1 (stereo unspecified)
i	-0.81	CCOC(=O)c1[nH]c(C)c(C(=O)NC)c1C

# Entries of single compounds as entered above:
# COc1ccc(CC(=O)OCc2cc3ccccc3[nH]c2=O)cc1 is entered as KCNQ2 inh: i; KCNQ2 inh baseline: 0.07
# O=C(Cc1ccccc1Cl)Nc1nc2ccccc2[nH]1 is entered as KCNQ2 inh: i; KCNQ2 inh baseline: 0.47

# New compounds follow:
KCNQ2 inh	KCNQ2 inh baseline	canonical_smiles
i	1.87	COCCCNC(=O)CN1C(=O)/C(=C/c2ccccc2)Sc2ccccc21
i	-0.6	COc1ccc(NC(=O)CSc2nc3ccccc3nc2N2CCCCC2)cc1
i	-0.53	COc1ccccc1N=c1oc2c(OC)cccc2cc1C(=O)NCc1ccco1
i	0.77	CC(C)(C)NC(=O)C(=O)NC(=O)c1c(F)cccc1Cl
i	-0.89	COc1ccc(-c2cc(C)no2)cc1S(=O)(=O)N1CCN(c2cccc(C)c2)C(C)C1 (stereo unspecified)
-5.62*	0.92*	COc1ccc(Oc2ccc(C(F)(F)F)cc2NC(=O)c2ccc(C)cc2)cc1
-7.06*	0.47*	COc1cc2c(cc1NC(=O)C(c1ccccc1)c1ccccc1)CCCC2
i	0.64	COc1cccc(CNC(=O)C2CCN(S(=O)(=O)N3CCC4(CC3)OCCO4)CC2)c1
i	-2.7	CC1(C)OC(=O)C(=CNn2cnc3ccccc3c2=O)C(=O)O1
-8.77*	-0.69*	COc1cc(C(=O)Nc2c(C)cc(C)cc2C)c(Br)c(OC)c1OC
i	-1.4	CCOc1ccc(CNC(=O)c2ccc(Sc3ccc(Cl)cc3)c(NC(C)=O)c2)cc1
i	-0.03	CCOC(=O)N1CCN(C(=O)CN(C)S(=O)(=O)c2ccc(F)cc2)CC1

# Arranged by length of the SMILES (low to high): some entries from above
KCNQ2 inh	KCNQ2 inh baseline	canonical_smiles
i	-0.83	N/C(Cc1cccs1)=N\OC(=O)COc1ccccc1Cl
i	0.06	O=S(=O)(c1ccccc1Oc1ccc(Cl)cc1Cl)N1CCCCC1
i	-0.03	O=C(N/N=C/c1ccc[nH]1)c1ccccc1OCc1ccc(F)cc1
i	-0.03	CCOC(=O)N1CCN(C(=O)CN(C)S(=O)(=O)c2ccc(F)cc2)CC1
i	-0.2	CCCN1C2=C(C(=O)CCC2)C(c2ccc(O)c(Br)c2)C2=C1CCCC2=O
i	-1.01	O=C1C2C3C=CC(C3)C2C(=O)N1CCN1CCN(Cc2ccc([N+](=O)[O-])cc2)CC1 (stereo unspecified)

# The listing continues:
KCNQ2 inh	KCNQ2 inh baseline	canonical_smiles
i	-0.9	CCN(CC)C(=O)c1ccc(O)c(OC)c1
i	0.16	CCCCCCSc1nsc(NC(=O)CCC)n1
i	-0.99	COc1cc(/C=C2\SC(=S)N(Nc3ccccc3)C2=O)cc(OC)c1OC
i	0.23	Fc1ccc(Cn2nnnc2CN2CCc3ccccc3C2)cc1
i	-0.33	COC(=O)C1=C(C)NC(=O)/C1=C\c1cc(C)n(-c2ccccc2C)c1C
i	0.1	COc1cc(NC(=O)c2ccc(C)cc2)c(OC)cc1NC(=O)CN1CCCCC1
i	0.84	COc1ccc(N2CC(C(=O)OCC(=O)Nc3ccccc3C)CC2=O)cc1 (stereo unspecified)
i	0.32	Cc1ccc(S(=O)(=O)N2CCN(C(=O)CSc3ccccn3)CC2)c(C)c1
i	-0.01	C/C(=N\NC(=O)c1nonc1N)c1cccs1
i	0.07	COc1cc(S(=O)(=O)NC2CCCC2)ccc1Cl
i	2.08	CC1(C)CC(=O)C(CC(=O)N2CCC(Cc3ccccc3)CC2)C(=O)C1
i	-0.76	Cc1ccc(CN2CCN(Cc3cccc4c3OCO4)CC2CCO)cc1 (stereo unspecified)

# Other entries:
KCNQ2 inh	KCNQ2 inh baseline	canonical_smiles
i	0.65	COc1ccc(CN(C(=O)c2oc3ccccc3c2C)C2CCS(=O)(=O)C2)cc1 (stereo unspecified)
i	0.13	O=S(=O)(c1ccc(NC(=S)N/N=C/c2c3ccccc3cc3ccccc23)cc1)N1CCOCC1
i	-1.18	COCCCN1C(=O)C(=O)/C(=C(/O)c2ccc(S(=O)(=O)N3CCOCC3)cc2)C1c1ccc(C)cc1 (stereo unspecified)
i	0.16	O=C1CCCc2c1cc(C(=O)Nc1ccc(Cl)cn1)c(=O)n2-c1ccccc1
i	1.24	COc1ccc(CCNC(=O)C2c3ccccc3C(=O)N2CCC(C)C)cc1OC (stereo unspecified)
i	0.87	Cc1ccc(CN2CC(C(=O)N3CCN(S(=O)(=O)c4cc(C)ccc4C)CC3)CC2=O)cc1 (stereo unspecified)
i	-0.27	CCN(CC)c1nc(C#N)nc(N(CC)CC)n1
i	-2.13	O=C1c2ccccc2C(Nc2cccc(C(F)(F)F)c2)N1Cc1ccco1 (stereo unspecified)
i	0.06	Cc1ncc(CO)c2c1Oc1nc(-c3ccccc3)nc(SCC(=O)N(C)c3ccccc3)c1C2
i	0.64	O=C(COC(=O)c1ccc(Cl)c([N+](=O)[O-])c1)NC1CCCC1
i	-0.01	CCOC(=O)c1cccc(NC(=O)CCn2nc(C)c(S(=O)(=O)N3CCCCC3)c2C)c1
i	1.79	O=[N+]([O-])CC(c1ccccc1)P(=O)(c1ccccc1)c1ccccc1 (stereo unspecified)

# (next part)
KCNQ2 inh	KCNQ2 inh baseline	canonical_smiles
i	2.71	Cc1cccc(-n2cnc(C(=O)N/N=C/c3ccccc3)c2)n1
i	0.19	COc1ccc([N+](=O)[O-])cc1NC(=O)C(C)OC(=O)CSC(C)C(=O)Nc1cc(C)on1 (stereo unspecified)
i	0.23	C=CCNC(=O)CN(Cc1ccccc1)S(=O)(=O)c1ccc(C)cc1
i	-1	C/C(=N\NC(=O)c1cccc([N+](=O)[O-])c1)c1ccncc1
i	-0.39	Cc1cc(OC(C)C(=O)NCC2CCC(C(=O)O)CC2)c2c(C)cc(=O)oc2c1 (stereo unspecified)
i	1.97	O=C(Nc1ccccc1)N1CCNCC1
i	1.66	COc1cccc(CN2CC(C(=O)N3CCN(c4ccc(Cl)cc4)CC3)CCC2=O)c1 (stereo unspecified)
i	-0.06	Cc1nc(Cc2nnc(SCC(=O)N(C)c3ccccc3)o2)cs1
i	0.22	COc1ccc(CCNC2=NCCS2)cc1OC
i	0.51	CCC(Sc1ncnc2c1nnn2-c1ccc(F)cc1)C(=O)OC (stereo unspecified)
i	-1.05	CCC(CC)c1nnc(NC(=O)CS(=O)(=O)Cc2ccccc2)s1
-6.92*	-1.03*	O=C(COc1ccc(Cl)cc1Cl)N(c1ccccn1)C1CCCCC1

# New compounds follow.
KCNQ2 inh	KCNQ2 inh baseline	canonical_smiles
i	-1.69	CC(C)CC(NC(N)=O)C(=O)NCc1ccc(Cl)cc1 (stereo unspecified)
i	0.03	CCc1nnc(NC(=O)CN2CC(C)OC(C)C2)s1 (stereo unspecified)
i	-0.64	Cc1nn(C(=O)c2ccc3c(c2)OCO3)c(N)c1-c1ccccc1
i	0.28	Cc1ccc2c(c1)N(CC(=O)NC1CCCCCC1)C(=O)c1cccnc1O2
i	-0.61	Cc1ccc(S(=O)(=O)C2(C(=O)NCc3ccccc3Cl)CC2)cc1
i	1.36	O=C(CCSCCC(=O)N1CCCC1)N1CCCC1
i	3.12	CC(=O)c1c(C)[nH]c(C(=O)CSc2nnc3ccccn23)c1C
i	2.49	CC(=O)c1ccccc1OC(=O)c1ccco1
i	-1.66	Cc1ccc2nc(-c3ccc(SCC(=O)Nc4ccc5c(c4)OCCO5)nc3)[nH]c2c1
i	0.13	O=C1COc2ccc(S(=O)(=O)Nc3cccc(Cl)c3)cc2N1
i	-0.03	Cc1ccc(NC(=O)CS(=O)CC(=O)N(CC(=O)NC(C)(C)C)c2cccc(C)c2C)cc1 (stereo unspecified)
i	-1.04	COc1ccc(-c2cc(=O)oc3cc(OCC(=O)N4CCOCC4)ccc23)cc1

# Next part
KCNQ2 inh	KCNQ2 inh baseline	canonical_smiles
i	0.01	Brc1ccc(-c2nnc(-c3ccc4c(c3)OCO4)o2)o1
i	-0.95	CCCCCC(=O)N[C@@H](c1ccccc1)[C@@H](O)C(=O)O[C@H]1C[C@@]2(O)[C@@H](OC(=O)c3ccccc3)C3[C@](C)(C(=O)[C@H](OC(C)=O)C(=C1C)C2(C)C)[C@@H](O)C[C@H]1OC[C@@]31OC(C)=O (stereo partly specified)
i	1.01	Cc1cccc(CC(=O)NCCN2CCCCC2)c1
i	1.63	Cc1cc(OCC(=O)N2CCN(c3cccc(Cl)c3)CC2)c2c(C)c(C)c(=O)oc2c1
i	-0.33	O=S(=O)(/C=C/c1ccccc1)Nc1cccc(S(=O)(=O)NC2=NCCC2)c1
i	1.86	CCCCn1nc2cc(C(=O)N(CC)c3ccc(OC)cc3)ccc2c1OCC
i	0.12	COc1cccc(CNC(=O)C2CCN(S(=O)(=O)c3ccc4c(c3)CCC(=O)N4)CC2)c1
i	-0.26	CCN(c1ccc(C)cc1C)S(=O)(=O)c1nnc(NC(=O)C(C)C)s1
i	0.77	O=C(NCCc1nc2ccccc2[nH]1)/C(=C/c1ccc(F)cc1)NC(=O)c1ccco1
-7.3*	0.21*	CCCN(CCC)CCNC(=O)c1cc2c(-c3ccc(Cl)cc3)nn(C)c2s1
i	-0.41	O=S(=O)(c1ccc(NC2CCCc3ccccc32)nc1)N1CCOCC1 (stereo unspecified)
i	2.29	Cc1noc(C)c1COc1ccc(C(=O)OCC(=O)N2c3ccccc3NC(=O)C2(C)C)cc1

# The list continues.
KCNQ2 inh	KCNQ2 inh baseline	canonical_smiles
i	-0.49	CCc1ccccc1NC(=S)NNC(=O)c1ccccc1Cl
i	1.45	CCC(=O)c1ccc(OCC(=O)Nc2ccc3nc(C)sc3c2)cc1
i	0.91	COc1ccc(C2OC(=O)Cc3cc(OC)c(OC)cc32)cc1 (stereo unspecified)
i	1.04	CCC(C)c1ccc(OCCn2cc(/C=N/NC(=O)CSc3nnc(C)s3)c3ccccc32)cc1 (stereo unspecified)
i	-0.68	O=C(O)c1ccccc1C(=O)N1CCN(Cc2ccc3c(c2)OCO3)CC1
i	-0.75	C=CCOc1cccc(/C=N/NC(=O)CC(=O)NC2CCCCC2)c1
i	0.02	O=S(=O)(NC1CCN(Cc2ccccc2)CC1)c1ccc(Cl)cc1
i	0.71	COC(=O)[C@@H]1Cc2c([nH]c3ccccc23)C(C)N1C(=O)c1ccccc1 (stereo partly specified)
-7.02*	-1.29*	CCOC(=O)c1c(-c2cccs2)csc1NC(=O)C(C)(C)C
i	-1.49	O=C(CSc1nc2c(sc3ccccc32)c(=O)n1Cc1ccccc1)NCC1CCCO1 (stereo unspecified)
i	-2.02	Cc1cc(C)c2nc(N(CCCN(C)C)C(=O)C3=COCCO3)sc2c1
-5.69*	-1.82*	CCOC(=O)C1=NN(c2cccc(Cl)c2)C2=NC(C)=C(C(=O)OC)C(c3cccs3)N12 (stereo unspecified)

# More results:
KCNQ2 inh	KCNQ2 inh baseline	canonical_smiles
-5.6*	-0.32*	O=C(OCn1ncc(Br)c(Br)c1=O)c1ccc(F)cc1
i	0.87	CCCN1CCC(=O)N([C@H](CSc2ccccc2)c2ccccc2)CC1
-10.5*	-1.76*	COc1ccc(C(=O)CC(Nc2ccc([N+](=O)[O-])cc2)c2ccc(OC)cc2)cc1 (stereo unspecified)
i	1.15	Cc1cc(C)n(C(=O)c2ccc(S(=O)(=O)NCC3CCCO3)cc2)n1 (stereo unspecified)
i	-0.2	CCCNC(=S)N1CCN(Cc2ccc3c(c2)OCO3)CC1
i	-0.78	Cc1ccc(S(=O)(=O)NNC(=O)c2cc3cc4ccccc4nc3s2)cc1
i	0.22	c1cn2c(NC3CCCCC3)c(-c3ccc(SC4CCCCC4)cc3)nc2cn1

# Only part of the results is shown. The share of hits here may be higher or lower than overall.
